Screening data: PubChem, ICCB-Longwood Screening Facility, Harvard Medical School
BasE inh – inhibitors of Acinetobacter baumannii siderophore enzyme BasE | AID 485350 | 0.1% of 84,000 active | inhibition, % (no concentration beside the values) | purified BasE, fluorescence polarization binding displacement;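 active means both replicates above 25% with normal brightness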;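 further: 0% = negative plate control signal and 100% = positive plate control signal; stock transfer was 100 nL into about 30 µL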
KSHV LANA nucl – LANA-nucleosome interaction inhibition. FITC-LANA1-23 / chicken nucleosome fluorescence polarization; active compounds read low. z-score (test concentration not listed). 0.3% of 51,000 active;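 active means both repeat wells score below -2 in polarization z-score versus plate sample wells, excluding overly bright wells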;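 further: 100 nL library stock added to about 30 µL; numbers are from one replicate; some results filed as inactive read as strong as hits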
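test system = FITC-LANA peptide and chicken nucleosomes | amount = 240 nM purified chicken nucleosomes (480 nM peptide binding sites), final | reagent = 50 nM FITC-LANA1-23 probe | medium = TEN-BT buffer, pH 7.5 | doses = single compound addition by pin transfer, 100 nL per well | timing = 10–45 min, room temperature | detection = fluorescence polarization | repeats = duplicate plates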
Numbers without * were called inactive; · = not tested or not shown. Some of the compounds tested; the hit share may differ from the screen's.

Screens in order: BasE inh	KSHV LANA nucl
> CN(C)S(=O)(=O)c1ccc(C(=O)Nc2ccccc2SCCC#N)cc1
  2.1	-2.2
> CCn1c(CSc2nnc(C3CC3)n2C)nc2cc(S(=O)(=O)N3CCCCC3)ccc21
  1.0	·
> O=c1ccccn1CCOc1ccc(Cl)cc1Cl
  -0.4	-0.016
> CC(=O)N(C)Cc1nc2ccccc2n1CCOc1cccc(C)c1C
  -2.7	0.057
> CCN1CCN(C(=O)Nc2ccc(OC)cc2)CC1
  -0.3	-1.9
> S=c1[nH]nc(C2CCCCC2)n1N=Cc1cccnc1
  0.4	-0.084
> CCN(CC)c1nn2c(=O)c(C(=O)N3CCC4(CC3)OCCO4)cnc2s1
  -2.0	-0.47
> O=S(=O)(c1cccc(Cl)c1Cl)N1CCOCC1
  -3.0	1.4
> Cn1c(=O)c2c(-c3ccc(Br)cc3)n(CCO)cc2n(C)c1=O
  0.8	0.032
> CCC(C(=O)NC1CCCC1)N(C(=O)c1snc(C(N)=O)c1N)c1ccccc1 (configuration not stated)
  1.8	-0.51
> Cc1cc(C)cc(NC(=O)c2ccc(COc3ccccc3Br)o2)c1
  -4.4	1.6
> O=C(Cc1cccs1)NCCCN1CCCC1=O
  2.0	0.27
> Clc1ccc(Sc2ccc(-c3ccccn3)s2)cc1
  -0.6	·
> CCOC(=O)c1ccc(NC(=O)C2=CSCCO2)cc1
  -4.5	-0.1
> O=C(N1CCOCC1)N1CCN(Cc2ccccc2)CC1
  0.2	-0.91
> Cn1nc(C(=O)NCCCN2CCN(CCCNC(=O)c3ccc(=O)n(C)n3)CC2)ccc1=O
  1.2	·
> Cc1ccc(N=C2C(=O)Nc3ccccc32)cc1
  -1.3	0.72
> Cc1cc(N)n(-c2nc(C)nc3sc4c(c23)CCC(C)C4)n1 (configuration not stated)
  2.9	·
> CNCc1ccccc1Br
  0.5	·
> CCN1C(=O)CC(C(=O)Nc2ccc(OC)cc2)SC1=Nc1ccccc1 (configuration not stated)
  2.1	-0.029
> CN(C)c1cc[n+](CC(=O)N2CCCc3ccccc32)cc1
  -2.0	0.13
> Cc1ccc(C(=O)OCc2c(C#N)oc3ccc(Br)cc23)cc1C
  -1.6	·
> CC(C)(C)CC[n+]1ccc(/C=N/O)cc1
  0.5	·
> C=CCNC(=O)C1CCN(c2ncccn2)CC1
  ·	2.2
> Cc1noc(C)c1COc1ccc(CC(=O)NC2CCCCCC2)cc1
  -3.6	·
> O=C1CN(C(=O)CCc2ccccc2)c2ccccc2N1
  -3.2	0.86
> Fc1ccc(CN2CCN(c3ncccn3)CC2)cc1F
  -0.9	-0.76
> OC1CCN(Cc2cccc(Br)c2)CC1
  5.5	0.19
> CCC(C)NC(=O)CSc1nc2ccc(N3CCOCC3)cc2c(=O)n1Cc1ccc2c(c1)OCO2 (configuration not stated)
  0.6	-0.64
> CCC12CN(S(=O)(=O)c3ccc(C)cc3)CC(CC)(CN(S(=O)(=O)c3ccc(C)cc3)C1)C2=O
  1.1	-1.2
> COC(=O)c1ccccc1NC(=O)COC(=O)c1ccco1
  -0.6	-0.16
> Cc1ccc(N2C(=O)N(CC(=O)N3CCC(C)CC3)C3CS(=O)(=O)CC32)cc1Cl (configuration not stated)
  0.1	0.49
> O=C(O)c1ccccc1C(=O)NC1=NN(c2ccccc2)CC1
  0.2	0.16
> Cc1ccc(C)c(N2CCN(S(=O)(=O)c3ccc4c(c3)OCCO4)CC2)c1
  -0.2	-0.89
> Cc1nc2ccccc2nc1C(N)=O
  2.2	-0.092
> CN(C)Cc1nc2c(c(=O)[nH]1)C(C)(C)Cc1ccccc1-2
  -0.2	0.49
> Cc1noc(C)c1COc1ccc2ccccc2c1Br
  2.9	·
> COc1ccc2oc(=O)c(C(=O)N3CCC(C(N)=O)CC3)cc2c1
  1.2	-0.58
> COc1ccc(NC(=O)c2ccc(Cl)cc2)cc1
  ·	-0.0045
> O=C(Nc1nc(SCc2ccc(Cl)cc2)n[nH]1)C1CC(=O)N(C2CCCC2)C1 (configuration not stated)
  1.2	·
> Cc1nn(-c2ccccc2)nc1C(=O)ONC(=O)Cc1ccccc1
  2.8	-0.015
> Cn1cccc1C(=O)OCc1cc(=O)oc2cc(O)ccc12
  2.5	·
> COc1ccccc1/C=C(/C(=O)OCc1cc(C)on1)c1ccccc1
  0.9	·
> CCCCNC(=O)c1c(N)no[n+]1[O-]
  0.9	-1
> O=c1[nH]c2ccccc2c(O)c1C1=NS(=O)(=O)c2ccccc2N1
  2.0	0.26
> Cc1cc(C)cc(OCC(O)CN2CCN(C(=O)c3ccco3)CC2)c1 (configuration not stated)
  -0.3	·
> CN(C)c1ccc(NC(=O)c2ccccn2)cc1
  -0.3	·
> CCSc1nnc(-c2cccc(S(=O)(=O)N3CCOCC3)c2)n1C1CCCC1
  0.7	·
> CC(=O)NC(=O)c1cc2ccccc2oc1=Nc1ccc(C(F)(F)F)cc1
  3.7	·
> O=C(COC(=O)CCc1c[nH]c(=O)[nH]1)Nc1ncccn1
  -0.2	0.28

The listing continues.
Screens in order: BasE inh	KSHV LANA nucl
> CC(C)N1CCC(=O)N(c2ccc(C(C)(C)C)cc2)C1=O
  3.0	-0.78
> O=C(O)/C=C\C(=O)NCC1(c2ccccc2)CCOCC1
  2.6	-0.47
> Cc1cc(=O)oc2c1ccc1oc(N=Nc3ccccc3)c(O)c12
  -1.7	-0.005
> CC(C)(CN)C(O)C(=O)O (configuration not stated)
  3.6	0.36
> Cc1[nH]nc2c1C(c1ccc(C(C)C)cc1)N(C)C2=O (configuration not stated)
  1.5	-1.4
> CCOC(=O)N1CCN(C(=S)NC2CCCC2)CC1
  0.8	-0.28
> CC1(C)C/C(=N\O)c2c(nc(C(F)(F)F)c3[nH]c4ccccc4c23)C1
  0.9	·
> N#CC(C#N)=C1CCC(=C(C#N)C#N)CC1
  -4.7	0.97
> CC(NC(=O)CSc1nnc(-c2ccco2)n1-c1ccccc1)C1CC2CCC1C2 (configuration not stated)
  0.7	·
> CC(C)(Oc1ccc(Cl)cc1)C(=O)N1CCN(c2ccc(C(F)(F)F)cn2)CC1
  2.2	·
> COCn1c(COc2ccc3ccccc3c2)nc2ccccc21
  0.6	·
> CC(C)N(C(=O)NC(=O)Nc1ccc(C=C(C#N)C#N)cc1)S(C)(=O)=O
  1.8	·
> CCOC(=O)c1c(CCc2ccc3c(c2)OCO3)csc1N
  4.5	·
> O=C(Cn1cnc2c(cnn2-c2ccccc2)c1=O)NCCc1ccccc1
  -2.6	0.0085
> Nc1ccccc1C(=O)NCCN1CCNC1=O
  -1.6	·
> O=C(CSc1ncc(-c2ccc(F)cc2)n1Cc1ccco1)OC1CCCCC1
  2.7	0.46
> CCCCn1c(Cc2ccccc2)nc2ccccc21
  1.2	·
> CC1CN(C(=S)SCC(=O)c2ccccc2)CC(C)O1 (configuration not stated)
  0.6	·
> CC1(C)C(C(=O)ON2C(=O)CCC2=O)C1(C)C
  -0.5	-0.46
> COC(=O)C1=C(Nc2ccccc2NC(=O)COCC(=O)O)CSC1
  2.1	·
> Cn1nc(-c2ccc(Cl)cc2)cc1NC(=O)Cn1nnc(-c2ccccc2)n1
  -0.5	·
> CCCCNc1ncc2cc3ccccc3nc2c1C#N
  6.4	-1.8
> COc1ccc(-c2cc(-c3nc(-c4cccnc4)no3)[nH]n2)cc1
  6.4	0.24
> CCOC(=O)c1cc2ccccc2[nH]c1=O
  -1.1	-0.29
> CCOC(=O)C1CCN(S(=O)(=O)c2cnc[nH]2)CC1
  2.0	-1.4
> Cc1nc2ccccc2c2c1C(=O)N(C1CCCCCCC1)C2=O
  1.6	-0.2
> Cc1ccc(C(=O)OCC(=O)c2cc(C)n(CC3COc4ccccc4O3)c2C)s1 (configuration not stated)
  -2.8	·
> O=c1[nH]n(CC2COC(c3ccccc3)O2)c(=O)c2ccccc12 (configuration not stated)
  -0.6	0.059
> Cc1ccc2[nH]c(O)c(N=NC(=O)c3cccc(O)c3)c2c1
  3.5	-0.82
> CN1CCC(NC(=O)CCCc2ccccc2)CC1
  1.2	1.4
> Cc1nc2nc3[nH]c4ccccc4c3nn2n1
  -3.3	0.85
> CC1CN(C(=O)c2cc(S(=O)(=O)N3CCCC3)ccc2Cl)CC(C)O1 (configuration not stated)
  2.3	-1.3
> O=C(COC(=O)Cn1cnc2ccccc21)NCc1ccccc1
  9.5	·
> O=C(c1ccc2c(c1)OCCCO2)N1CCOCC1
  0.4	·
> COc1ccc(-c2nc(SCCC(=O)O)n[nH]2)cc1
  2.2	0.22
> N#CC(Nc1cc(C(F)(F)F)cc(C(F)(F)F)c1)c1ccccc1 (configuration not stated)
  2.4	·
> NS(=O)(=O)c1ccc(NC(=O)CN2C(=O)c3ccccc3C2=O)cc1
  2.3	·
> CCCS(=O)(=O)N1CCn2cccc2C1c1ccc(Cl)cc1Cl (configuration not stated)
  -0.5	0.55
> O=C(CCn1nnc2ccccc21)N1CCC(O)(c2cccc(F)c2)CC1
  -0.9	-0.79
> Cc1cccc(-c2n[nH]c(=S)n2CC(N)=O)c1
  -0.7	·
> O=C(Cn1c(C(=O)NCc2ccco2)cc2sccc21)c1ccccc1
  -3.7	2.2
> C=CCN1C(=O)CN=C1Nc1ccccc1
  -0.9	-0.47
> Cc1ccc(-c2csc3ncnc(NCCC(=O)O)c23)cc1
  1.1	·
> Cc1cc(=O)oc2c3c(ccc12)OCN(CCc1ccccc1)C3
  -1.0	0.37
> Cn1c(=O)n(C)c2cc(CNc3ccc(N4CCOCC4)c(C(=O)O)c3)ccc21
  0.2	-1.1
> CCOc1ccc(C2CNC(=O)C2)cc1 (configuration not stated)
  -1.8	-0.05
> CCNC(=O)c1cc2c(=O)n3ccccc3nc2nc1NCCCN1CCOCC1
  -2.1	2.7
> N/C(=N\OC(=O)CN1C(=O)c2ccccc2C1=O)c1ccccn1
  2.1	-0.55
> CC(=O)ON1C(c2ccccc2)[N+]([O-])=C(c2ccccc2)C1(C)C (configuration not stated)
  3.0	0.75
> Clc1ccc(-c2cnc3ccccc3n2)cc1
  1.6	0.37

(more compounds)
Screens in order: BasE inh	KSHV LANA nucl
> O=C(CCCSc1nc2ccccc2s1)N1CCN(c2ncccn2)CC1
  0.5	·
> CC(C)N1C(=O)CSC1c1ccccc1 (configuration not stated)
  -0.2	0.47
> c1ccc2c(c1)NC(c1ccc3c(c1)OCCO3)n1cccc1-2 (configuration not stated)
  -3.9	1.6
> Cc1cc(C)n(C(=O)c2cccs2)n1
  1.2	-0.24
> COC(=O)n1c(=O)oc2cc(Cl)ccc21
  0.5	-0.57
> CCC(C)NC(=O)c1csc2c1CCCCC2 (configuration not stated)
  -1.4	-0.005
> O=C(c1c(Cl)nc2sccn12)N1CCN(c2cccc(Cl)c2)CC1
  0.6	·
> COC(=O)c1cc(OC(=O)c2nc(-c3ccccc3)oc2C)cc(C(=O)OC)c1
  0.7	·
> O=C(c1ccn(C(=O)c2ccc(Cl)cc2Cl)n1)N1CCCCC1
  0.7	·
> O=C(O)/C(=C\c1ccccc1)c1cccs1
  1.0	·

Quoted at random: 5 entries already listed, in no set order.
Screens in order: BasE inh	KSHV LANA nucl
> COC(=O)n1c(=O)oc2cc(Cl)ccc21
  0.5	-0.57
> c1ccc2c(c1)NC(c1ccc3c(c1)OCCO3)n1cccc1-2 (configuration not stated)
  -3.9	1.6
> O=C(CCCSc1nc2ccccc2s1)N1CCN(c2ncccn2)CC1
  0.5	·
> COC(=O)c1cc(OC(=O)c2nc(-c3ccccc3)oc2C)cc(C(=O)OC)c1
  0.7	·
> O=C(c1c(Cl)nc2sccn12)N1CCN(c2cccc(Cl)c2)CC1
  0.6	·

Continuation.
Screens in order: BasE inh	KSHV LANA nucl
> Cc1nnc(Sc2nc3ccc(Cl)cc3s2)n1-c1ccc2c(c1)OCCO2
  3.4	·
> O=C(/C=C/c1ccc2c(c1)OCO2)NCc1ccccc1
  2.4	0.36
> CSc1ccccc1NC(=O)c1noc2c1CC(C(C)(C)C)CC2 (configuration not stated)
  -1.1	-0.63
> OC(c1ccc(-n2ccnc2)cc1)c1ccc(-n2ccnc2)cc1
  ·	-0.59
> Cc1cc(=O)[nH]c(SCc2cc(=O)n3nc(SCC(C)C)sc3n2)n1
  0.5	0.6
> O=C(CNC(=O)C12CC3CC(CC(C3)C1)C2)N1CCN(S(=O)(=O)c2ccc(Cl)cc2)CC1
  0.9	·
> O=S(=O)(NCc1ccccc1)c1ccc(S(=O)(=O)N2CCCCCC2)cc1
  -1.0	0.2
> CC(C)(C)c1ccc(OCCn2c(=O)oc3ccccc32)cc1
  0.1	-0.76
> CCCCc1ccc2nc(NC(=O)c3ccco3)sc2c1
  -6.8	1.7
> CCCCCC1CC(CC(C)C(=O)Nc2nncs2)C(=O)O1 (configuration not stated)
  -2.7	2
> CSc1ccc(Cl)c(C(=O)OC(C)C(N)=O)c1 (configuration not stated)
  0.2	·
